gsp ag: activates gsp, the McCune-Albright syndrome mutation; gsp mutant cells, cAMP HTRF, 30 min; control for the full effect not named in the record; Potency, µM (titrated, usually from 76.9 µM), for the others: top-dose activation (cAMP increase), hits mostly activators; actives 0.13% (n = 340,000); active = well fitted activation curve with a large enough effect; inconclusive = small, poorly fitted or top-dose-only effect, or another doubt; inactive = no such curve, though single readings can be large or run the other way; cell line not stated here;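 note: phosphodiesterase inhibitor Ro 20-1724 added with compounds to block cAMP breakdown; potency is the fitted concentration of half-maximal effect; nearly all actives have a fitted effect of over 60% in size; about a fifth of the inactives were tested at one dose only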
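Cells in DMEM/10% FBS with G418 were pretreated with compounds in DMSO plus […] (300 uM stock) for 30 min at 37C. cAMP was measured by HTRF (cAMP-d2 plus anti-cAMP antibody-K) after 30 min at room temperature.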
ClpP mod: qHTS Assay for Activators of ClpP. ATP-dependent Clp protease proteolytic subunit (Bacillus subtilis (strain 168)), P80244. AID 651965, 2013. purified B. subtilis ClpP, FRET peptide cleavage, 20 min. actives 1.9% (n = 340,000). Potency, µM (titrated, usually from 57.5 µM), without a hit: top-dose activity change, negative = active; active = well fitted falling curve with a large enough effect; inconclusive = small, poorly fitted or top-dose-only effect; inactive = no such curve, though single readings can be large or run the other way; note: potency is the fitted concentration of half-maximal effect; the source files actives as falling curves though it sought activators and does not explain the sign; nearly all actives have a fitted effect of over 65% in size; many hits overshoot -100%
Target sequence (P80244 whole entry, looked up): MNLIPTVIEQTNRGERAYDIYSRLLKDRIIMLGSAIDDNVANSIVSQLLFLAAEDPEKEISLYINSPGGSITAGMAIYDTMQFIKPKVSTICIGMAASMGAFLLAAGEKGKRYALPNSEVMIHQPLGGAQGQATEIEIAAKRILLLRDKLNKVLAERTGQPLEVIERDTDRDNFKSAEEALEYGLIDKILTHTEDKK
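ClpP 10 microg/mL final, pH 8 Tris/KCl buffer with BSA, glycerol, Tween-20; compound pinned in; FRET-FV substrate; RT 20 min; Ex320/Em430; ΔFRET vs ADEP 5.8 microM, DMSO, no enzyme.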
CtBP-E1A blk: inhibitors of CtBP/E1A interaction; AlphaScreen GST-E1A/His-CtBP binding, 1536-well; active compounds read low; control for the full effect not named in the record; activity change, % (test concentration not listed); actives 0.49% (n = 340,000); in the data active means activity change below about -65%; inconclusive means about -30% to -65%; inactive means above about -30%; note: % is set by controls: 0 for no effect and ±100 for the full control effect
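Homogeneous bead-based format: GST-tagged E1A captured on glutathione donor beads, His-tagged CtBP on nickel acceptor beads; compounds precede bead addition by 2 h at 37 °C.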
TRPV1 potentiator: human TRPV1 potentiation | actives 0.02% (n = 320,000) | Q8NER1 | AID 540277 | potentiation, % at 8.33 µM | TRPV1-expressing cells, Fluo-8 calcium influx, capsaicin EC20 potentiation; host cell line not named in the record; control for the full effect not named in the record; active means potentiation above 80%; inconclusive means 30% to 80%; inactive means below 30%; note: 0% is about no effect
Target sequence (Q8NER1 whole entry, looked up): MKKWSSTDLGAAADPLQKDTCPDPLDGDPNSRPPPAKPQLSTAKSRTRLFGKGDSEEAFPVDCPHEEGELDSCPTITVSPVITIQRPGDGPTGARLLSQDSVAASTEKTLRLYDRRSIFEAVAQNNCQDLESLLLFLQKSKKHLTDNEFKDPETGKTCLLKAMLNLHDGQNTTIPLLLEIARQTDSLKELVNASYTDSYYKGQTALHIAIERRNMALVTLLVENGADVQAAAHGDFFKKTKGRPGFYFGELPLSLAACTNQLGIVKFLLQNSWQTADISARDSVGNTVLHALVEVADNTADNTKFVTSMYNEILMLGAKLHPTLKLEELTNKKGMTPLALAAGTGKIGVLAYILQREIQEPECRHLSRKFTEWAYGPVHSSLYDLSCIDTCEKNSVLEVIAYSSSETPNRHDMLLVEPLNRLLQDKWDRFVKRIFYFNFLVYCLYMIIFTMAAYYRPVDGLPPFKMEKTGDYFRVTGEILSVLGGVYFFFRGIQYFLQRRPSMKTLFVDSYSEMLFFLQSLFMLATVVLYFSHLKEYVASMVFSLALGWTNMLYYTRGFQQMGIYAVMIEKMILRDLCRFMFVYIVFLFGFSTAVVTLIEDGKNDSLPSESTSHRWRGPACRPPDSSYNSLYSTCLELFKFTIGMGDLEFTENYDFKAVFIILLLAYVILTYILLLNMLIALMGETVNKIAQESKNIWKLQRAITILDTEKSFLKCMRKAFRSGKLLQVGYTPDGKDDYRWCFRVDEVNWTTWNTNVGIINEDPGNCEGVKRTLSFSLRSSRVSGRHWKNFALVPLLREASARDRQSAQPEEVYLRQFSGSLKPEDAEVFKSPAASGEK
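Fluo-8 calcium influx in TRPV1-expressing cells, kinetic read (ex 480/em 520 nm). Compound added and read 3 min for agonist activity, followed by capsaicin at EC20 final and 2 min further read for enhancement.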
Sfp PPTase inh: Sfp phosphopantetheinyl transferase inhibition; AID 1490; Q9F4F7; Potency, µM, without a hit: max response, negative = inhibition, most hits filed as inhibitors; Biochemical Sfp PPTase activity, qHTS; actives 3.5% (n = 310,000); active = well fitted inhibition curve with a large enough effect; inconclusive = small, poorly fitted or top-dose-only effect, or another doubt; inactive = no such curve, though single readings can be large or run the other way;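 note: the enzyme is Sfp with the accession as filed and its product quenches rhodamine fluorescence; potency is the fitted concentration of half-maximal effect; 0% = enzyme reaction without inhibitor and -100% = no enzyme wells; top concentration of the series not given in the record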
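Fluorescence-quenching assay with 15 nM Sfp, 5 uM rhodamine-CoA and 12.5 uM BHQ-2-labelled ybbR peptide in pH 7.6 Hepes/MgCl2 buffer. Enzyme was pre-incubated with compound for 15 min at room temperature. Rate was taken from the 30-min fluorescence change (525/598 nm).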
Menin-MLL FL inh: inhibitors of human menin-MLL interaction, wild-type MLL peptide. Fluorescence polarization, fluorescein-MLL peptide displacement from menin. FP activity change, % at 61.4 µM. 290,000 tested, under 10 active. AID 1766; inconclusive = falling polarisation curve, or a change in total fluorescence; inactive = total fluorescence flat and polarisation flat or rising; no compound was filed as active; the % refers to the polarisation; negative = inhibition;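 note: % of control where 0% means no effect; inhibitors lower the polarisation; unlabelled MLL peptide was the positive control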
gsp antag: antagonizes gsp, the McCune-Albright syndrome mutation | gsp-mutant cells, cAMP HTRF, 30 min; control for the full effect not named in the record | Potency, µM (series often up to 76.9 µM), for inactives: at the highest dose activity change, negative = inhibition, hits mostly inhibitors | actives 0.4% (n = 340,000); active = falling curve of any shape with a large fitted effect; inconclusive = falling curve, mostly with a smaller effect; inactive = flat or rising curve; cell line not stated here;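 note: intracellular cAMP measured with PDE inhibitor Ro 20-1724 present during compound exposure; potency is the fitted concentration of half-maximal effect; % is set by controls: 0 for no effect and ±100 for the full control effect; nearly all actives have a fitted effect of over 65% in size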
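G418-selected cells were plated in DMEM/10% FBS for 16-24 h at 37C, then treated with compounds plus the PDE inhibitor […] (300 uM solution added) for 30 min at 37C. Intracellular cAMP was measured by HTRF after 30 min lysis at room temperature.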
Active calls of the source: *; ? = inconclusive; . = not tested or not shown; & = joins results of further samples; [ ] = dose if it differs, or a comment.

SMILES	gsp ag	ClpP mod	CtBP-E1A blk	TRPV1 potentiator	Sfp PPTase inh	Menin-MLL FL inh	gsp antag
CC(=O)NC(Nc1nc2c(s1)CCCC2)(C(F)(F)F)C(F)(F)F	-22%	-14%	7	-7	-6%	1.3	3%
COc1ccccc1CC(=O)c1ccccc1OC	-12%	.	-8	.	.	.	4%
O=[N+]([O-])c1ccccc1-c1ccc(C(=S)N2CCN(c3ccccc3)CC2)o1	?	-0.3%	.	2	18µM*	10.0	4%
Cc1ccc(NC2(C#N)C(=O)Nc3ccccc32)cc1C (stereo not given)	0%[15.4 µM]	-0.7%	2	-6	-3%	-6.3	4%
CC1CC(C)CN(S(=O)(=O)N2CCCC(C(=O)NC(C)c3ccccc3)C2)C1 (stereo not given)	2%	1.4%	.	6	23%	-0.2	1%
COc1ccc2c(CC(=O)O)cc(=O)oc2c1	?	3.0%	4	14	5%	-1.1	11%
O=C(NNC(=O)C12CC3CC(CC(O)(C3)C1)C2)c1ccccc1O	41%	3.3%	-1	-3	-4%	.	0%
CCN(Cc1ccccc1)C(c1cccc(C#N)c1)c1nnnn1C(C)(C)C (stereo not given)	-4%	0.1%	5	-2	16%	1.5	-1%
COC(=O)C1=C(C(=O)OC)[C@@H]2N(C)c3ccccc3[C@@]23C[C@@H](C(=O)OC)N(C(=O)c2cc(C)oc2C)C3=N1	.	-1.9%	-14	-29	-5%&1%	-4.6[11.7 µM]	-2%
O=C(c1ccco1)N1CCCC(N2CCN(c3ccccc3F)CC2)C1 (stereo not given)	6%[15.4 µM]	1.0%	4	-7	8%	0.4	-4%
CCOC(=O)N1CCN(C(=O)c2ccc(N3C(=O)CCC3=O)cc2)CC1	0%	0.0%	-5	5	29%	2.4	11%
COc1cccc(N2CCN(C(=O)Nc3ccccc3Cl)CC2)c1	-8%	.	-13	-3	16%	0.8	13%
CC1CN(c2ccccc2)NC1=O (stereo not given)	-7%[15.4 µM]	.	7	-5	11%	0.9	10%
CCc1ccc(O)c(-c2cc(C(=O)Nc3cccnc3)[nH]n2)c1	?	3.3%	0	20	11%	-0.8	-2%
COc1ccc(OC)c(CCNC(=O)Cn2sc3nc(C)cc(C)c3c2=O)c1	.	.	.	-8	1.4µM*	3.0	.
CCc1cc2c(Sc3nc4ccccc4s3)ncnc2s1	-9%	?	4	2	-4%	2.4	-10%
CCOC(=O)N1CCN(S(=O)(=O)N2CCCC(C(=O)NCc3ccccc3OC)C2)CC1 (stereo not given)	-2%	-1.6%&-1.1%	4	?	21%	.	4%
Cc1ncc(CO)c(/C=N/NC(=S)Nc2ccc(F)cc2)c1O	4%	-13%	-86*	1	-17%	?	-2%
CC(=O)c1cccc(NC(=O)c2sc3nc4n(c(=O)c3c2C)CCCCC4)c1	19%	-0.5%	?	-25	9%	.	-23%
COc1ccc(C)cc1NS(=O)(=O)c1ccc2c(c1)n(C)c(=O)n2C	-8%[15.4 µM]	-0.2%	4	4	-2%	0.3	4%
CN(C)/C=C(/C(=O)c1ccc(Cl)cc1)S(=O)(=O)c1ccc(Cl)cc1	-18%	-1.0%	-4	4	10%	.	6%
O=C(CSc1nc2ccccc2c(=O)n1-c1ccc(OC(F)F)cc1)NCc1cccs1	10%	2.9%	2	-17	-20%	-1.9	-6%
CCOC(=O)C1CCN(C(C(=O)NC2CCCC2)c2ccc(C)cc2)CC1 (stereo not given)	12%	1.4%	1	.	-15%	-21	-5%
COC(=O)c1ccccc1NC(=O)c1ccc(-c2cccc(Cl)c2)o1	?	?	-3	-8	13%	1.1	-4%
CCN1CCN(CC(O)COc2ccc(C)c(C)c2)CC1 (stereo not given)	8%[15.4 µM]	-6.3%&1.2%	12&4	3	-10%	0.6	13%&8%
COc1ccc(NC(=O)c2ccccc2C)cc1	-22%	.	2	-10	18%	-3.7	7%
O=S1(=O)CCN2C=Nc3sc4c(c3C2=N1)CCCC4	-5%	-2.3%	-11	-1	12%	2.1	-8%
CSc1ccccc1OCc1cc(C(=O)NC2CCOC2)no1 (stereo not given)	12%	-1.2%	3	16	2%	-1.0	6%
CCN(C(=O)COC(=O)c1c2c(nc3ccccc13)CCC2)c1c(N)n(Cc2ccccc2)c(=O)[nH]c1=O	-52%[inhibitor]	-5.4%	3	.	.	.	-17%
COc1ccccc1NC(=O)CSc1nc2sc(C)c(C)c2c(=O)n1C	14%	.	-9	5	?	-10	-9%
COc1ccc2c(c1)OCC(O)(c1ccccc1)C2=O (stereo not given)	?	.	9	.	.	.	6%
CC(=O)OCC(=O)NCCCOc1cccc(CN2CCCCC2)c1	.	0.7%	5	.	12%	3.4	3%
COc1ccc(-n2nc(C(=O)NCC(=O)NCCC3=CCCCC3)c3ccccc3c2=O)cc1OC	?	.	1	?	6%	-2.3	0%
Cc1ccc(-c2c3c(=O)n(C)c(=O)n(C)c3cn2-n2cnnc2)cc1	14%	0.6%	-5	-4	13%	0.7	-10%
COc1cccc(-c2ncc3ccccc3c2COC(=O)N(C)C)c1	.	-0.4%	-1	-18	.	.	-17%
Cc1nc(C)c(C(=O)OCC(=O)NCCc2ccc(F)cc2)s1	-17%[15.4 µM]	.	-4	-1	.	.	2%
O=C(O)CC(O)C(=O)O (stereo not given)	-24%	-1.1%	3	-6	25%&11%	2.9&1.5	13%
CC(=O)C1=C(C)OC(N)=C(C#N)C1c1cccnc1 (stereo not given)	-32%[inhibitor]	.	-3	4	18%	-8.9	0%
COc1ccc(CCNC(=O)CCNC(=O)N2CC(=O)Nc3ccccc32)cc1OC	-18%	1.6%	3	-6	17%	.	24%
CC1CCc2nc(NC(=O)CN3CCN(Cc4ccc5c(c4)OCO5)CC3)sc2C1 (stereo not given)	-19%	-1.9%	-7	1	2%	6.6	-4%
COc1cccc(-n2c(N)c(C(=O)Nc3c(C)n(C)n(-c4ccccc4)c3=O)c3nc4ccccc4nc32)c1	6%[15.4 µM]	.	-10	?	-26%	4.7	-9%
O=C(Nc1nccs1)c1cc2c(s1)CCCCC2	28%	-0.9%	-6	10	-26%	5.1	4%
COc1cc(C2CC(=O)N(CC(=O)NCc3ccco3)c3ccccc3S2)cc(OC)c1OC (stereo not given)	28%	-0.4%	-9	-5	6%	-0.2	2%
CCCCN(CC)C(=O)c1ccc(Cl)c(Cl)c1	-1%	-0.6%	3	9	3%	5.8	?
Cc1nc(C)c(C(=O)N2CCCC(CCC(=O)NCc3ccc(F)c(F)c3)C2)s1 (stereo not given)	-5%	.	15	3	5%	1.7	4%

Laid out differently: 2 of the compounds above.
COc1cccc(-c2ncc3ccccc3c2COC(=O)N(C)C)c1
  gsp ag: .	ClpP mod: -0.4%	CtBP-E1A blk: -1	TRPV1 potentiator: -18	Sfp PPTase inh: .	Menin-MLL FL inh: .	gsp antag: -17%

Cc1nc(C)c(C(=O)OCC(=O)NCCc2ccc(F)cc2)s1
  gsp ag: -17%[15.4 µM]	ClpP mod: .	CtBP-E1A blk: -4	TRPV1 potentiator: -1	Sfp PPTase inh: .	Menin-MLL FL inh: .	gsp antag: 2%

Next part.
SMILES	gsp ag	ClpP mod	CtBP-E1A blk	TRPV1 potentiator	Sfp PPTase inh	Menin-MLL FL inh	gsp antag
Clc1ccc(OCCCCN2CCCCC2)cc1	0%	.	-1	-11	-20%	-12	6%
CN(C)CCCN(C(=O)COc1ccc(Cl)cc1)c1nc2cc3c(cc2s1)OCCO3	-4%[15.4 µM]	-5.3%	-3	3	.	.	-1%
O=C(Cc1cccc(NC(=O)C2CCCN(C(=O)CCc3ccccc3)C2)c1)Nc1cccc(C(=O)N2CCCCC2)c1 (stereo not given)	.	-1.8%	-10	.	.	.	-8%
Cc1cc(C)nc(N/N=C/c2cn[nH]c2-c2ccccc2)n1	25%	.	-11	5	18%	2.5	-4%
O=C(Cc1ccccc1)Nc1ccc(NC(=O)c2ccccc2)nc1	-6%[15.4 µM]	0.7%	4	10	11%	-9.7	8%
COCCCNC(=O)C[C@H]1C[C@H](C(=O)N2CCOCC2)[C@@]2(C)c3[nH]c4cc(CCC(=O)N(C)C)ccc4c3CCN2C1=O	.	-3.2%	2	.	.	.	4%
Cc1cc(C)c(NC(=O)CNC(=O)COC(=O)Cc2cccs2)c(C)c1	-49%[inhibitor]	-2.1%	3	4	.	.	16%
COCCNC(=O)c1cc(-c2ccc3c(c2)OCO3)on1	-28%	-11%	8	5	18%	-0.1	3%
CCOc1ccc(S(=O)(=O)N2CCCCC2)cc1NC(=O)CN1C(=O)NC(C)(c2ccccc2)C1=O (stereo not given)	-6%[15.4 µM]	.	-1	-1	.	.	-10%
Cc1ccc(C(=O)NC2CCSC2=O)cc1 (stereo not given)	-26%	1.5%	13	-6	9%	2.0	2%
CCOC(=O)c1cnn(-c2nc(-c3ccc(C)cc3)cs2)c1C(F)(F)F	-1%	32µM*	16	0	?	4.7	18%
O=Cc1c(N2CCSCC2)nc2ccccn2c1=O	52%[15.4 µM]	-1.8%	1	-2	21%	0.7	-11%
O=C1CC(NCc2ccco2)C(=O)N1CCc1ccccc1 (stereo not given)	7%	-0.4%	2	11	5%	-0.8	8%
Cn1c(=O)c(=O)n(C)c2cc(S(=O)(=O)N3CCN(c4cccc(C(F)(F)F)c4)CC3)ccc21	-11%	0.2%	3	-3	15%	6.1	1%
CC1(c2nnc(-c3cccc(Cl)c3)o2)CC(c2cccnc2)=NO1 (stereo not given)	-3%	2.0%	1	.	.	.	9%
CN(C)S(=O)(=O)c1ccc(N2CCCC2=O)c([N+](=O)[O-])c1	-2%[15.4 µM]	-2.3%	-1	-9	17%	7.1	9%
O=C(NCCO)c1cc2cc(Cl)cc(Cl)c2oc1=O	1%[15.4 µM]	.	1	-8	35µM*	10	7%
Cc1cccc(C)c1NC(=S)N(CCN(C)C)C(C)c1ccccn1 (stereo not given)	-7%	-1.3%	-72*	17	-25%	6.1	-3%
CCOc1cc(C=NNC(=O)c2cccc(S(=O)(=O)N3CCCC3)c2)ccc1O	1%	2.4%	.	.	.	.	-19%
CCN(CC)CCCC(C)NC(=O)c1c(NC(=O)c2ccccc2)sc2c1CCCC2 (stereo not given)	-2%	-1.0%	-3	-9	-18%	-0.1	-2%
CCOC(=O)c1ccc(Nc2ncnc3ccc(C)cc23)cc1	18%	?	15	-13	13%	1.1	-7%

Assay outcomes from PubChem.
